MITF inhib – inhibitors of MITF, primary screen, MITF inhibitor project, cell-based, luminescence. TRPM1 promoter luciferase, 24 h. inhibition, % (test concentration not listed). hit rate 0.28% among 37,000. AID 2240, 2010;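 active = most replicates at 85% or more, or half of them and the mean; inconclusive = half reach 85% but not the mean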;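 also: human melanocyte line stably carrying TRPM1 promoter luciferase reporter; 0% = vehicle wells and 100% = a positive control; the first replicate is given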
PD-1 reversal – activators reversing PD-1 mediated T-cell inhibition, primary screen, luminescence, primary human CD4 T cells, PD-L1 beads | activation, % (concentration not given with the values) | CellTiter-Glo 96 h | 29,000 tested, under 10 active;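 active = replicate mean of 50% or more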;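 also: 0% = median vehicle wells and 100% = positive control; 100 nL library stock added to about 50 µL; numbers are from one replicate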
Shh pathway inh – Hedgehog pathway signaling inhibitors, primary screen, luminescence, Shh-LIGHT2 cells, Gli-luciferase. AID 2313, 2010. Shh-LIGHT2 Gli-luciferase reporter, 30 h. inhibition, % (concentration not given with the values). hit rate 2.1% among 22,000;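 active = replicate mean of 65% or more; inconclusive = mean lower but half the replicates past it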;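 also: pathway switched on by Shh-conditioned medium diluted 1 in 25 in low serum; 100 nL library stock added to about 40 µL; 0% = median of neutral wells and 100% = positive control level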
YB-1 expr inh – inhibitors of YB-1 gene expression, primary screen, cell-based, fluorescence; U2OS, qRT-PCR YB-1 vs CDIP delta delta Cp, 16 h; stronger effect = higher value; zero = DMSO, each unit about twofold; delta delta Cp (YB-1 minus CDIP) (no concentration beside the values); hit rate 0.37% among 30,000;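 active = delta delta Cp rounded down to an integer at or above 3, about 3 SD of DMSO wells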;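 also: higher means less YB-1 transcript or more CDIP transcript relative to DMSO; stock transfer was 100 nL into about 100 µL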
Active calls of the source: *; ? = inconclusive; / = not tested or not shown. This is a subset, so the mix of outcomes need not match the whole.

SMILES | MITF inhib | PD-1 reversal | Shh pathway inh | YB-1 expr inh
COc1ccc(NC(=O)N(C)C[C@H]2Oc3ccc(NC(=O)NC4CCCCC4)cc3C(=O)N([C@H](C)CO)C[C@@H]2C)cc1 | 16.9 | 0.7 | -34.8 | -0.111
C[C@H](CO)N1C[C@H](C)[C@@H](CN(C)S(=O)(=O)c2cn(C)cn2)Oc2c(NC(=O)Nc3ccccc3)cccc2C1=O | -5.2 | 1.5 | 34.8 | -0.152
COc1ccc(NC(=O)Cc2nc(-c3ccc([N+](=O)[O-])cc3)cs2)cc1 | 11.6 | -2.0 | / | /
C[C@@H]1CN([C@@H](C)CO)C(=O)Cc2cc(NC(=O)Cc3cn(C)c4ccccc34)ccc2O[C@@H]1CN(C)C(=O)NC1CCCCC1 | -9.2 | -1.2 | -13.1 | 0.229
C[C@@H]1CN([C@H](C)CO)C(=O)c2cc(NC(=O)c3ccncc3)ccc2O[C@H]1CN(C)S(=O)(=O)c1ccc(Cl)cc1 | -1.2 | -0.8 | / | 0.518
c1ccc(CSc2nccc(-c3ccc4c(c3)CCO4)n2)cc1 | -28.2 | -0.8 | -11.8 | 0.337
O=C(Oc1cccc(OC(=O)c2ccccc2F)c1)c1ccccc1F | -3.8 | 1.1 | / | 0.68
C[C@H]1CN([C@@H](C)CO)C(=O)Cc2cc(NC(=O)C3CCCCC3)ccc2O[C@H]1CN(C)Cc1ccncc1 | -5.0 | -0.1 | -2.2 | -0.0504
O=C(CSc1nc2ccccc2[nH]1)Nc1cccc(C(=O)O)c1 | -9.4 | 0.1 | / | /
C[C@@H]1CN([C@@H](C)CO)C(=O)c2cccc(NS(=O)(=O)c3ccc(Cl)cc3)c2O[C@@H]1CN(C)S(=O)(=O)c1ccccc1 | 7.0 | -3.5 | -63.8 | -0.124
COC(=O)c1oc2c(c1C)-c1nc3ccccc3nc1C(C)(C)C2 | 6.9 | -1.1 | / | -0.182
CCN(CC)CCC(=O)N1N=C(c2ccc(C)cc2)CC1c1ccc(OC)cc1 (stereo not drawn) | -0.9 | 0.9 | -5.2 | -0.244
C[C@H]1CN([C@@H](C)CO)C(=O)Cc2cc(NS(=O)(=O)c3cccs3)ccc2O[C@@H]1CN(C)Cc1ccc(C(F)(F)F)cc1 | -1.5 | -0.2 | 25.4 | 0.186
O=C1CC(SCc2ccc(Cl)cc2)C(=O)N1c1ccc(Br)cc1 (stereo not drawn) | 4.4 | 0.1 | 93.6* | 0.215
C[C@H]1CN([C@@H](C)CO)C(=O)c2cc(NC(=O)C3CCCCC3)ccc2O[C@@H]1CN(C)C(=O)NC1CCCCC1 | 3.6 | -0.9 | / | 0.187
Cc1noc(C)c1NC(=O)N(C)C[C@@H]1Oc2ccc(NC(=O)c3ccncc3)cc2C(=O)N([C@@H](C)CO)C[C@H]1C | 7.9 | 0.6 | -13.4 | -0.0344
CC(=O)c1cccc(NC(=O)Nc2nn(Cc3c(F)cccc3Cl)cc2Br)c1 | 22.9 | -9.0 | / | /
CNC[C@H]1Oc2c(NC(=O)c3cnccn3)cccc2C(=O)N([C@H](C)CO)C[C@@H]1C | 1.9 | -1.3 | -43.3 | -0.00293
Cc1noc(C)c1NC(=O)N(C)C[C@H]1OCCCC[C@@H](C)Oc2ccc(NS(=O)(=O)c3ccc(Cl)cc3)cc2C(=O)N([C@H](C)CO)C[C@@H]1C | -14.8 | 0.1 | 1.1 | 1.44
Cc1sc2ncnc(SCC(=O)Nc3ccc4c(c3)OCCO4)c2c1C | -11.8 | 0.2 | / | /
C[C@@H]1CN([C@@H](C)CO)C(=O)c2cc(NS(=O)(=O)c3cn(C)cn3)ccc2O[C@@H]1CN(C)C(=O)Nc1ccccc1 | -3.7 | 0.9 | -23.9 | 0.134
C[C@@H]1CN([C@@H](C)CO)C(=O)Cc2cc(NC(=O)Cn3cnnn3)ccc2O[C@@H]1CN(C)C(=O)NC1CCCCC1 | -2.2 | 2.2 | -18.3 | 0.48
CS(=O)(=O)N(CC(=O)Nc1cccc(C(F)(F)F)c1)c1cc(Cl)c(Cl)cc1Cl | 19.0 | -2.7 | / | /
Cc1cc(C(=O)Nc2cccc3c2O[C@H](CN(C)Cc2ccc(Cl)c(Cl)c2)[C@@H](C)CN([C@H](C)CO)C3=O)n(C)n1 | -1.8 | / | -6.3 | -0.715
COC(=O)c1cccc(OC(C)C(=O)O)c1 (stereo not drawn) | 3.7 | -0.3 | 6.3 | 0.725
C[C@H]1CN([C@@H](C)CO)C(=O)c2cccc(NS(=O)(=O)c3cccs3)c2O[C@@H]1CN(C)Cc1ccc(-c2ccccc2)cc1 | -3.6 | / | -48.8 | 0.171
O=C(Nc1ccc(Cl)cc1)c1ccccc1NS(=O)(=O)c1cccc2cccnc12 | 53.3 | 0.8 | / | /
COc1cc(/C(C)=C/C(C)(O)C(C)O)oc(=O)c1C (stereo not drawn) | -5.3 | 0.8 | -13.4 | -0.51
C[C@@H]1CN([C@@H](C)CO)C(=O)c2cc(NC(=O)CCN3CCOCC3)ccc2O[C@H]1CN(C)C(=O)Nc1ccc(C(F)(F)F)cc1 | -2.1 | 0.8 | 1.0 | 0.15
Cc1noc(C)c1S(=O)(=O)Nc1ccc2c(c1)C(=O)N([C@H](C)CO)C[C@H](C)[C@H](CN(C)C(=O)C1CCCCC1)OCCCC[C@@H](C)O2 | 8.9 | / | 16.5 | -0.225

Looked up above:
`Cc1noc(C)c1NC(=O)N(C)C[C@@H]1Oc2ccc(NC(=O)c3ccncc3)cc2C(=O)N([C@@H](C)CO)C[C@H]1C` @ Shh pathway inh = -13.4
`Cc1cc(C(=O)Nc2cccc3c2O[C@H](CN(C)Cc2ccc(Cl)c(Cl)c2)[C@@H](C)CN([C@H](C)CO)C3=O)n(C)n1` @ Shh pathway inh = -6.3

Continuation:
SMILES | MITF inhib | PD-1 reversal | Shh pathway inh | YB-1 expr inh
C[C@@H]1CN([C@@H](C)CO)C(=O)Cc2cc(NC(=O)C3CCCCC3)ccc2O[C@@H]1CN(C)C(=O)Nc1ccc(C(F)(F)F)cc1 | 7.9 | / | / | 0.0378
CS(=O)(=NS(=O)(=O)c1cccc2nsnc12)c1ccc(Cl)cc1 (stereo not drawn) | -24.1 | 0.8 | -11.6 | -0.121
Cc1noc(C)c1NC(=O)Nc1ccc2c(c1)C(=O)N([C@H](C)CO)C[C@H](C)[C@H](CN(C)Cc1ccc3c(c1)OCO3)O2 | -7.7 | / | / | -0.134
Cc1ccc(S(=O)(=O)N(C)C[C@@H]2Oc3ccc(NC(=O)NC(C)C)cc3CC(=O)N([C@@H](C)CO)C[C@@H]2C)cc1 | 10.3 | 0.3 | 12.9 | 0.14
Cc1noc(C)c1S(=O)(=O)Nc1cccc2c1O[C@H](CN(C)C(=O)Nc1ccc(C(F)(F)F)cc1)[C@H](C)CN([C@@H](C)CO)C2=O | 9.4 | / | -1.2 | 0.163
C[C@@H]1CN([C@@H](C)CO)C(=O)c2cccc(NS(=O)(=O)c3ccccc3)c2O[C@H]1CN(C)S(=O)(=O)c1ccccc1 | -14.7 | 0.3 | -17.7 | -0.0554
C[C@@H]1CN([C@@H](C)CO)C(=O)c2cccc(NC(=O)Nc3ccccc3)c2O[C@H]1CN(C)S(=O)(=O)c1ccc(Cl)cc1 | -8.2 | 1.1 | -36.9 | 0.101
C[C@H](CO)N1C[C@H](C)[C@H](CN(C)S(=O)(=O)c2ccc(Cl)cc2)Oc2ccc(NC(=O)CCN3CCOCC3)cc2C1=O | 0.4 | 0.4 | 22.1 | -0.37
COc1ccc(CN(C)C[C@H]2Oc3ccc(NC(=O)Nc4c(C)noc4C)cc3C(=O)N([C@H](C)CO)C[C@@H]2C)cc1 | 6.0 | 1.1 | 7.6 | 0.161
COc1ccc(C)cc1S(=O)(=O)N(C)CC(=O)Nc1ccccc1C(F)(F)F | -18.7 | -1.0 | / | /
COc1ccc(C(c2cn(C)c3ccccc23)c2cn(C)c3ccccc23)c(OC)c1OC | 5.3 | 3.3 | / | /
COc1ccc(CCc2cc(OC)cc(=O)o2)cc1 | -15.2 | 1.6 | -26.3 | -0.289
C[C@@H]1CCCCO[C@@H](CN(C)CC2CC2)[C@@H](C)CN([C@H](C)CO)C(=O)c2cc(NC(=O)c3ccncc3)ccc2O1 | -4.1 | 2.4 | -9.8 | 0.2
Cc1ccc(Cn2nc(C)cc2C(=O)Sc2ccccc2)cc1 | 7.0 | -8.7 | 28.5 | 0.116
CNC[C@H]1Oc2ccc(NS(=O)(=O)c3cccs3)cc2C(=O)N([C@H](C)CO)C[C@H]1C | -1.0 | 0.1 | -9.8 | -0.351
c1ccc2sc(N3CCN(Cc4ccc5c(c4)OCO5)CC3)nc2c1 | -21.2 | 0.2 | -2.4 | -0.0196
Nc1cc(=O)[nH]c(SCC(=O)Nc2ccccc2)n1 | -12.4 | -0.2 | / | /
C[C@@H]1CN([C@H](C)CO)C(=O)Cc2cc(NC(=O)Nc3cccc4ccccc34)ccc2O[C@H]1CN(C)S(=O)(=O)c1cccs1 | -10.9 | -1.7 | -12.1 | -0.127
C[C@@H]1CCCCO[C@H](CN(C)C(=O)c2ccccc2)[C@@H](C)CN([C@H](C)CO)C(=O)c2cc(NC(=O)Nc3ccc(C(F)(F)F)cc3)ccc2O1 | 22.1 | -1.5 | 17.5 | 0.163
C[C@@H]1CN([C@H](C)CO)C(=O)c2cc(NC(=O)CCC(F)(F)F)ccc2O[C@@H]1CN(C)C(=O)Nc1ccc(F)cc1 | -0.5 | -0.3 | -11.9 | -0.157
Cc1noc(C)c1S(=O)(=O)Nc1cccc2c1O[C@@H](CN(C)Cc1ccccc1)[C@@H](C)CN([C@@H](C)CO)C2=O | -9.7 | / | -19.6 | -0.0807
COc1ccc(S(=O)(=O)N(C)C[C@H]2Oc3ccc(NC(=O)NC(C)C)cc3C(=O)N([C@@H](C)CO)C[C@@H]2C)cc1 | 4.2 | 1.4 | / | 0.35
C[C@H]1CN([C@@H](C)CO)C(=O)Cc2cc(NC(=O)C3CCCCC3)ccc2O[C@H]1CN(C)Cc1ccccc1 | -2.3 | / | -2.7 | -0.109
COc1ccc(CN(C)C[C@H]2Oc3c(NC(=O)Nc4c(C)noc4C)cccc3C(=O)N([C@@H](C)CO)C[C@H]2C)cc1 | 0.2 | 0.2 | -45.1 | 0.842
CNC[C@@H]1Oc2ccc(NS(=O)(=O)c3c(C)noc3C)cc2CC(=O)N([C@H](C)CO)C[C@H]1C | -0.5 | -0.3 | -18.4 | 0.282
CCc1ccc2c(c1)=C(c1sc(N)nc1O)C(=O)N=2 | 13.0 | 0.8 | -25.8 | -0.276
C[C@@H]1CN([C@@H](C)CO)C(=O)Cc2cc(NS(=O)(=O)c3cn(C)cn3)ccc2O[C@@H]1CN(C)S(=O)(=O)c1ccc(F)cc1 | -14.4 | -0.2 | -29.1 | 1.25
CC(C)(C)C(=O)Nc1c(Cl)sc2nccc(=O)n12 | -7.1 | -0.7 | / | -0.608
C[C@H](CO)N1C[C@H](C)[C@H](CN(C)Cc2ccc(C(=O)Nc3ccccc3N)cc2)Oc2c(NS(=O)(=O)c3cccs3)cccc2C1=O | 6.2 | 0.7 | / | -0.251
COc1ccc(CN(C)C[C@H]2Oc3c(NC(=O)c4ccc(-c5nccs5)cc4)cccc3C(=O)N([C@@H](C)CO)C[C@@H]2C)cc1 | 12.0 | 1.1 | ? | -0.61

Full records from above:
Entry for `COc1ccc(CN(C)C[C@H]2Oc3c(NC(=O)c4ccc(-c5nccs5)cc4)cccc3C(=O)N([C@@H](C)CO)C[C@@H]2C)cc1` : MITF inhib: 12.0; PD-1 reversal: 1.1; Shh pathway inh: ?; YB-1 expr inh: -0.61
Entry for `CNC[C@@H]1Oc2ccc(NS(=O)(=O)c3c(C)noc3C)cc2CC(=O)N([C@H](C)CO)C[C@H]1C` : MITF inhib: -0.5; PD-1 reversal: -0.3; Shh pathway inh: -18.4; YB-1 expr inh: 0.282
Entry for `C[C@@H]1CN([C@H](C)CO)C(=O)c2cc(NC(=O)CCC(F)(F)F)ccc2O[C@@H]1CN(C)C(=O)Nc1ccc(F)cc1` : MITF inhib: -0.5; PD-1 reversal: -0.3; Shh pathway inh: -11.9; YB-1 expr inh: -0.157

(next part)
SMILES | MITF inhib | PD-1 reversal | Shh pathway inh | YB-1 expr inh
C[C@@H]1CN([C@@H](C)CO)C(=O)c2cccc(NC(=O)C3CC3)c2O[C@@H]1CN(C)S(=O)(=O)c1ccccc1 | -1.7 | 2.4 | 3.7 | -0.268
Cc1ccc(S(=O)(=O)Nc2ccc3c(c2)C(=O)N([C@@H](C)CO)C[C@@H](C)[C@H](CN(C)C(=O)NC(C)C)O3)cc1 | -7.0 | -1.6 | / | -0.0166
Cc1cc(Cl)ccc1N=C(N)NN | 17.2 | -0.4 | 27.5 | -0.401
Nc1cccc(-c2nnc(SCC(=O)Nc3cccc(Cl)c3)n2-c2ccccc2)c1 | 0.0 | -1.3 | / | /
COc1ccc(NC(=O)Nc2ccc3c(c2)CC(=O)N([C@@H](C)CO)C[C@@H](C)[C@@H](CN(C)Cc2ccc4c(c2)OCO4)O3)cc1 | -11.8 | 0.9 | 23.7 | 0.288
C[C@@H]1CCCCO[C@H](CN(C)C(=O)NC2CCCCC2)[C@@H](C)CN([C@H](C)CO)C(=O)c2cc(NS(=O)(=O)c3cccs3)ccc2O1 | -12.5 | / | -13.4 | -0.197
